Bioassay records deposited in PubChem BioAssay by National Center for Advancing Translational Sciences (NCATS).
Vaccinia mCherry: qHTS for Stage-Specific Inhibitors of Vaccinia Orthopoxvirus: mCherry Reporter Primary qHTS | Vaccinia virus mCherry reporter infection, fluorescence; about a quarter of the inactives have no number | Potency, µM (titrated, usually from 36.5 µM), for inactives: at the highest dose activity change, negative = inhibition, hits mostly inhibitors | 310,000 tested, 0.63% active | AID 720579, 2013; active = well fitted inhibition curve with a large enough effect; inconclusive = small, poorly fitted or top-dose-only effect; inactive = no such curve, though single readings can be large or run the other way; tested in A549 cells; further: nearly all actives have a fitted effect of over 35% in size; inactives centre near -10
VACV Venus inh: qHTS for Stage-Specific Inhibitors of Vaccinia Orthopoxvirus: Venus Reporter Primary qHTS | Potency, µM (doses to about 36.5 µM), without a hit: at the highest dose activity change, negative = inhibition, hits mostly inhibitors | 330,000 tested, 0.46% active | Vaccinia virus Venus reporter expression, fluorescence; active means well fitted inhibition curve with a large enough effect; inconclusive means small, poorly fitted or top-dose-only effect; inactive means no such curve, though single readings can be large or run the other way; tested in A549 cells; further: nearly all actives have a fitted effect of over 30% in size; inactives centre near -10
Active calls of the source: *; i = inactive; ? = inconclusive; nt = no result given; & = joins results of further samples; [ ] = another dose, or the depositor's remark. On the % scale 0 is the no-effect control and ±100 the full control effect; potency means the concentration at half of the fitted maximal effect.

Preview, 2 compounds:
Values run as follows: Vaccinia mCherry, VACV Venus inh
1: CC(=O)c1cc(C)ccc1OC(=O)c1ccco1
 : i, -1%
2: Cc1onc(-c2ccccc2)c1C(=O)N/N=C/c1c(F)cccc1Cl
 : -6%, -16%

The list itself, repeating the preview:
Values run as follows: Vaccinia mCherry, VACV Venus inh
1: CC(=O)c1cc(C)ccc1OC(=O)c1ccco1
 : i, -1%
2: Cc1onc(-c2ccccc2)c1C(=O)N/N=C/c1c(F)cccc1Cl
 : -6%, -16%
3: CC(C)C(=O)N1CCC2(CC1)Oc1ccc(Cl)cc1C(=O)C21CC(c2ccccc2)=NO1 (stereo not given)
 : -20%, ?
4: O=C1CCN(Cc2ccccc2)C=C1c1ccc(Cl)cc1
 : 4%, -17%
5: Cc1ccc(C)c(Cn2nnc3c(=O)[nH]c(C(=O)Nc4ccc(F)cc4)nc32)c1
 : i, -1%
6: O=c1oc2ccc(Br)cc2cc1-c1nc(-c2ccccc2)no1
 : -7%, 63%[activator]
7: COc1ccc(/C=C/c2nc3sc4c(c3c(=O)o2)CCC4)cc1
 : -7%, -3%
8: O=C(Cn1ccc2ccccc2c1=O)NCCC(=O)Nc1cccc(Cl)c1
 : -15%, -16%
9: CN(C)/C=N/C1=C(C#N)C(c2cccs2)c2ccc3ccccc3c2O1 (stereo not given)
 : -18%, -12%
10: COC(=O)c1cccc(Nc2ccc([N+](=O)[O-])cn2)c1
 : 5%, 3%
11: O=S(=O)(c1ccc(Br)s1)N1CCN(c2ccc(F)cc2)CC1
 : -13%, -12%
12: O=C(CSc1c2c(nc3ccc(Cl)cc13)CCCC2)N1CCN(c2cccc(Cl)c2)CC1
 : -18%, -22%
13: CCCc1nnc(SCC(=O)N(CC)CC)n1CC1CCCO1 (stereo not given)
 : -1%, -12%
14: O=C(NC(=S)N1CCc2ccccc21)c1ccc(Br)o1
 : ?, -3%
15: COc1cc(-c2cc(OC)c3c(C)oc(C)c3c(=O)c2)ccc1OC(=O)c1cccc(C)c1
 : -12%, -5%
16: Cc1cccc(Oc2nc3c(C)cccn3c(=O)c2/C=C(\C#N)c2nc3ccccc3[nH]2)c1
 : 6%, -7%
17: O=[N+]([O-])c1ccc(N2CCCCC2)cc1N1CCOCC1
 : -18%, -9%
18: O=C(NNC(=O)c1cccc2ccccc12)c1ccc(Cl)c(Cl)c1
 : -10%, -7%
19: COc1ccc(NC(=O)CCc2nnc3n(C)c(=O)c4sccc4n23)cc1Cl
 : -3%, -10%
20: CCOc1ccc(S(=O)(=O)NCCC(=O)N2CCN(c3ncccn3)CC2)cc1
 : -20%, -18%
21: CCC(Sc1nc2n[nH]c(C)c2c(=N)n1-c1ccc(Br)cc1)C(=O)N(CC)CC (stereo not given)
 : -15%, -25%
22: O=C(CNC(=O)c1ccco1)OCC(=O)c1ccc(Cl)cc1Cl
 : -29%, 0%
23: CN(c1ccc(OCC(=O)OCC(=O)c2c(N)n(C)c(=O)n(C)c2=O)cc1)S(=O)(=O)c1ccc2ccccc2c1
 : -12%, 14%
24: CC1(NC(=S)NCCO)CCS(=O)(=O)C1 (stereo not given)
 : 0%, -11%
25: CCc1nc2c(OCc3cccc(Cl)c3)cccn2c1N(C)C(=O)C(C)C
 : i, -15%
26: COc1ccc(NC(=O)N/C=C/c2ccc(Cl)cc2)cc1
 : -28%, -1%
27: COc1cc(/C=N\Nc2cc(=O)n(C)c(=O)n2C)ccc1O
 : -7%, -15%
28: Cc1ccc(NC(=O)CCS(=O)(=O)c2cccc3nonc23)c(Cl)c1
 : -20%, -26%
29: CCOc1ccccc1-n1nnnc1SCC(=O)NC(=O)Nc1ccc2c(c1)OCCO2
 : nt, -22%
30: Cc1cc2c(=O)n(C)c(SCC(=O)Nc3ccccc3C)nc2s1
 : -5%, -17%

Values run as follows: Vaccinia mCherry, VACV Venus inh
31: Nc1nonc1-c1nc2ccccc2n1CC(=O)Nc1ccc(F)cc1
 : -22%, -14%
32: COc1ccc(/C=C2\SC(=O)N(CCNC(=O)CCS(=O)(=O)c3ccc(C)cc3)C2=O)cc1
 : -18%, -20%
33: CCN(CC(=O)NCc1cccs1)C(=O)c1cccc(S(=O)(=O)NCc2ccccc2)c1
 : -23%, -8%
34: CCOC(=O)c1cnc2ccc(OC)cc2c1Nc1cccc(C(C)=O)c1
 : -5%, -6%
35: Fc1ccccc1CSc1nc2ncccc2[nH]1
 : -27%, -13%
36: Cc1ccc(CCN2CC(C(=O)O)CC2=O)cc1 (stereo not given)
 : i, -9%
37: Clc1ccc(Cn2ncc3c(N4CCOCC4)ncnc32)cc1
 : nt, -4%
38: CCN(CC)S(=O)(=O)c1ccc(C(=O)NCc2n[nH]c(=S)n2-c2ccccc2OC)cc1
 : 0%, -8%
39: O=C(COC(=O)c1cccc(-n2cnnn2)c1)c1ccc(F)c(F)c1
 : i, -10%
40: S=C(NCc1ccc2[nH]c3c(c2c1)CCCC3)Nc1ccccc1
 : i, -14%
41: CCC1CCCCN1CCCNC(=O)c1ccc(N2CCOCC2)c(NS(=O)(=O)c2ccc(OC)cc2)c1 (stereo not given)
 : i, -9%
42: O=C(CCNc1cccc(F)c1)c1cccc([N+](=O)[O-])c1
 : i, -10%
43: Cc1cc(OCC(=O)Nc2sc3c(c2C#N)CCC(C)C3)ccc1Cl (stereo not given)
 : -23%, -21%
44: O=C(Nc1ccccc1C(F)(F)F)Nc1c[nH]c(=O)[nH]c1=O
 : 6%, -2%
45: COc1ccc(-c2noc3c2-c2nc(-c4ccccc4)sc2CC3)cc1
 : -18%, -8%
46: NC(=O)Cn1cnc(-c2ccccc2)c1
 : -12%, -3%
47: CCOC(=O)CNC(=O)CSc1nc2cccnc2n1C1CCCCC1
 : -17%, -12%
48: COc1ccc(-c2cc(C(=O)Nc3cc(Cl)ccc3OC)no2)cc1
 : i, -8%
49: Cc1c2cnccc2c(C)c2c1oc1ccccc12
 : ?, ?
50: CCOC(=O)N1CCN(C(=O)C2CCC(=O)N(Cc3ccc(Cl)cc3)C2)CC1 (stereo not given)
 : -11%, -12%
51: COc1cccc(CC(=O)Nc2nc3c(s2)C(=O)CC(C)(C)C3)c1
 : i, -6%
52: O=C(CCN1C(=O)C2CC=CCC2C1=O)Nc1cccc(Cl)c1 (stereo not given)
 : -4%, -18%
53: C=CCN1C(=O)/C(=c2\sc3nc(=O)c(Cc4ccccc4Cl)nn3c2=O)c2ccccc21
 : -10%, -8%
54: O=C(C=Cc1ccc2c(c1)OCO2)C=Cc1ccc2c(c1)OCO2
 : -7%, -9%
55: N/C(CSc1ccc(Cl)cc1)=N\S(=O)(=O)c1ccc(Cl)cc1
 : -5%, -23%
56: O=C(NC(=S)Nc1cccc(CO)c1)c1ccc(-c2ccccc2)cc1
 : -21%, ?
57: CCCOc1ccc(CNCCCOCC)cc1OC
 : -9%, 8%
58: CC(=O)Nc1ccc(OCC(O)Cn2c3ccccc3c3ccccc32)c(C)c1 (stereo not given)
 : ?, ?
59: CC(C)Oc1ccc2ccccc2c1CNC[C@H]1O[C@@H](n2ccc(N)nc2=O)[C@H](O)[C@@H]1O
 : i, -9%
60: COc1ccc(S(=O)(=O)N2CC=C(C(=O)Nc3ccc(NC(C)=O)cc3)CC2)cc1
 : -14%, 4%

Values run as follows: Vaccinia mCherry, VACV Venus inh
61: Nc1ccc2oc3ccc(N)cc3c(=O)c2c1
 : -4%, -5%
62: Cc1cccc(-c2noc(-c3ccccc3NC(=O)C3CC(=O)N(c4ccccc4C)C3)n2)c1 (stereo not given)
 : -17%, -9%
63: Cc1ccc(C)c(NC(NC(=O)c2ccccn2)C(Cl)(Cl)Cl)c1 (stereo not given)
 : -31%, -20%
64: CSc1ccccc1NC(=O)CN(C)CC(=O)Nc1cccc(Br)c1
 : -2%, -13%
65: COc1cc(C)c(S(=O)(=O)N2CCN=C2c2ccccc2)cc1C
 : i, -15%
66: COc1ccc(-c2csc(=Nc3ccccc3)n2CCO)cc1F
 : -12%, -13%
67: COc1ccc(CCNC(=O)Cc2c(C)c3cc4c(C)coc4c(C)c3oc2=O)cc1
 : -11%, -5%
68: O=C1CC(c2ccccc2)=Nc2ccccc2N1
 : i, -20%
69: CCOC(=O)N1CCN(C(=O)c2ccccc2CCc2ccccc2)CC1
 : nt, -18%
70: CCc1nc2ccccc2n1Cc1ccc(F)cc1
 : -3%, -3%
71: COc1ccc(CCC(=O)OCC(=O)c2ccc(C)cc2)cc1
 : -23%, -18%
72: CCCCN1Cc2cc(C(=O)c3cc(OC)ccc3O)cnc2NC1=O
 : -10%, -4%
73: COC(=O)c1cc(NC(=O)c2ccco2)ccc1N1CCOCC1
 : i, -8%
74: CCCCn1cnc2c(=O)[nH]c(N)nc21
 : 22%, -10%
75: Cc1cccc(NC(=O)COC(=O)CCCC2=NS(=O)(=O)c3ccccc3N2)c1
 : -4%&3%, -8%&6%
76: CC(C)c1ccc(NC(=O)c2cc(S(=O)(=O)NCc3ccccc3Cl)ccc2F)cc1
 : ?, ?
77: Cc1cc(C)n(Cc2cnc(N3CCOCC3)s2)n1
 : i, -5%
78: O=c1[nH]n(-c2ccccc2)c(=O)c2ccccc12
 : i, -11%
79: Cc1ccccc1-c1cnc(C(O)c2ccc(C(C)(C)C)cc2)[nH]1 (stereo not given)
 : 24%, -4%
80: C=CCn1c(Cc2c(C)[nH]c3ccccc23)nnc1SCC(=O)NCc1ccc(F)cc1
 : nt, ?
81: O=C(CSc1nc(=O)n2ccccc2n1)N1CCCCCC1
 : -3%, -5%
82: Cc1nc(-c2ccc(C)c(N3CCN(C(=O)Nc4ccccc4C(F)(F)F)CC3)c2)no1
 : -8%, -2%
83: CCN(CC)C(=O)COc1c(-c2ccco2)oc2ccccc2c1=O
 : -15%, -13%
84: Cc1ccc(S(=O)(=O)NC(=O)C2(C)CCN2C(=O)Cc2ccc(Cl)cc2Cl)nc1 (stereo not given)
 : -10%, 8%
85: COc1ccc(S(=O)(=O)N(CC(=O)N2CCOCC2)c2ccc(F)cc2)cc1OC
 : i, -7%
86: Cc1ccc(Nc2cc(C(=O)NC3CCCC3)c3ccccc3n2)cc1C
 : -15%, -13%
87: Cc1ccc(S(=O)(=O)N2CCCc3cc(NC(=O)c4c(F)cccc4F)ccc32)cc1
 : -9%, -23%
88: N#Cc1ccc(COC(=O)C2CC(=O)N(CCc3ccccc3)C2)cc1 (stereo not given)
 : -14%, -11%
89: CCSc1nnc(-c2ccccc2N=Cc2c(C)[nH]n(-c3ccccc3)c2=O)c(=O)[nH]1
 : -15%, -13%
90: O=C(COc1ccc2ccc(=O)oc2c1)NC1CCS(=O)(=O)C1 (stereo not given)
 : -5%, 19%

Values run as follows: Vaccinia mCherry, VACV Venus inh
91: CC(C)Nc1ncnc2c1cnn2-c1ccc(Cl)cc1
 : 24%, -8%
92: CCOC(=O)c1cc2occc2n1CC(=O)NCCOC
 : -11%, -3%
93: CCOC(=O)C1=C(Nc2ccc(OC)cc2)OCC1=O
 : -10%, -12%
94: COc1ccccc1CNC(=O)c1cc(-c2ccccc2)nn1Cc1cc(C)no1
 : -33%, -19%
95: CC(C)N(C(=O)[C@H]1C[C@H](CC(=O)NC(C)(C)C)C(=O)N2CCc3c([nH]c4ccc(Cl)cc34)[C@]12C)C(C)C
 : -15%, ?
96: COc1ccc(CNC(=O)CSc2nc3ccccc3nc2Cc2ccccc2)cc1
 : -7%, -9%
97: CC1(C)CC(=O)CC2(C1)NCC(c1ccccc1Cl)c1c2[nH]c2ccccc12 (stereo not given)
 : ?, -23%
98: COC(=O)C1=C(C)N(CCc2ccccc2)C(=O)/C1=C\c1ccco1
 : i, -6%
99: O=C(CCc1ccccc1)N1CCN(S(=O)(=O)c2cccs2)CC1
 : -2%, -12%
100: COc1cc(=O)n2c(c1C(=O)NCc1ccco1)CCN(Cc1cccc(Cl)c1)CC2
 : -11%, -4%
101: O=C(NCCCN1CCN(C2CCCCC2)CC1)Nc1ccccc1C(F)(F)F
 : nt, -8%
102: O=S1(=O)N[C@H](Cc2ccccc2)COc2cc(N3CCN(Cc4ccccc4F)CC3)ccc21
 : i, -2%
103: O=C(NNC(=O)c1ccccc1C(F)(F)F)c1csc(N2CCOCC2)n1
 : -13%, -2%
104: CCOc1ccc(C(=O)C(C)OC(=O)CN2C(=O)NC(C)(C)C2=O)cc1 (stereo not given)
 : -14%, -4%
105: CN(C)S(=O)(=O)N1CCC(C(=O)O)(c2ccccc2)CC1
 : -7%, -3%
106: COc1ccc2c3c1OC1C(O)C=CC4[C@@H](C2)N(C)CC[C@]314 (stereo not given in full)
 : i, -6%
107: CCc1ccc(N(C(=O)c2csnn2)C(C(=O)NC(C)(C)C)c2cccnc2)cc1 (stereo not given)
 : i, -3%
108: CCCCC1CCC(c2nc(-c3ccccn3)no2)CC1 (stereo not given)
 : nt, -13%
109: CC(C)(C)c1ccc2cccc(F)c2n1
 : 14%, 10%
110: O=C(c1cccc(Cl)c1)N1CCCC(C(=O)N2CCN(c3ccccc3)CC2)C1 (stereo not given)
 : -7%, -10%
111: Cc1csc(C(=O)O)c1NC(=O)c1cccc([N+](=O)[O-])c1
 : -15%, -1%
112: CC(C)CNC(=O)CSc1nc2scc(-c3ccccc3)c2c(=O)[nH]1
 : i, -9%
113: Cc1cccc(NC(=O)CNC(=O)Cn2cc(C(F)(F)F)cc(Cl)c2=O)c1C
 : i, -5%

3 entries from above, sorted by formula weight, lowest first.
Values run as follows: Vaccinia mCherry, VACV Venus inh
93: CCOC(=O)C1=C(Nc2ccc(OC)cc2)OCC1=O
 : -10%, -12%
103: O=C(NNC(=O)c1ccccc1C(F)(F)F)c1csc(N2CCOCC2)n1
 : -13%, -2%
107: CCc1ccc(N(C(=O)c2csnn2)C(C(=O)NC(C)(C)C)c2cccnc2)cc1 (stereo not given)
 : i, -3%
